gsp ag: gsp mutant agonism; gsp mutant cells, cAMP HTRF, 30 min; control for the full effect not named in the record; Potency, µM (highest dose often 76.9 µM), without a hit: at the highest dose activation (cAMP increase), most hits filed as activators; 340,000 tested, 0.13% active; AID 624287; active = well fitted activation curve with a large enough effect; inconclusive = small, poorly fitted or top-dose-only effect, or another doubt; inactive = no such curve, though single readings can be large or run the other way; cell line not stated here;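 also: phosphodiesterase inhibitor Ro 20-1724 added with compounds to block cAMP breakdown; potency is read from the fitted curve at half-maximal effect; nearly all actives have a fitted effect of over 60% in size; about a fifth of the inactives were tested at one dose only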
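Cells in DMEM/10% FBS with G418 were pretreated with compounds in DMSO plus […] (300 uM stock) for 30 min at 37C. cAMP was measured by HTRF (cAMP-d2 plus anti-cAMP antibody-K) after 30 min at room temperature.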
ClpP mod: qHTS Assay for Activators of ClpP. ATP-dependent Clp protease proteolytic subunit (Bacillus subtilis (strain 168)), P80244. purified B. subtilis ClpP, FRET peptide cleavage, 20 min. Potency, µM (highest dose often 57.5 µM), for the others: at the top dose activity change, negative = active. 340,000 tested, 1.9% active; active = well fitted falling curve with a large enough effect; inconclusive = small, poorly fitted or top-dose-only effect; inactive = no such curve, though single readings can be large or run the other way; also: potency is read from the fitted curve at half-maximal effect; the source files actives as falling curves though it sought activators and does not explain the sign; nearly all actives have a fitted effect of over 65% in size; many hits overshoot -100%
Target sequence (P80244 whole entry, looked up): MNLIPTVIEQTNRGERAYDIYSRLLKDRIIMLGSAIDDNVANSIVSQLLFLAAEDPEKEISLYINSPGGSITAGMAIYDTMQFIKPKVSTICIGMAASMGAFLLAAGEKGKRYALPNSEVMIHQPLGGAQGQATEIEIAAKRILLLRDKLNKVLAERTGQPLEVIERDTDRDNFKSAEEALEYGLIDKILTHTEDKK
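ClpP 10 microg/mL final, pH 8 Tris/KCl buffer with BSA, glycerol, Tween-20; compound pinned in; FRET-FV substrate; RT 20 min; Ex320/Em430; ΔFRET vs ADEP 5.8 microM, DMSO, no enzyme.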
gsp antag: antagonizes gsp, the McCune-Albright syndrome mutation; gsp-mutant cells, cAMP HTRF, 30 min; control for the full effect not named in the record; 340,000 tested, 0.4% active; AID 624288; Potency, µM (series often up to 76.9 µM), for inactives: at the top dose activity change, negative = inhibition, actives largely listed as inhibitors; active = falling curve of any shape with a large fitted effect; inconclusive = falling curve, mostly with a smaller effect; inactive = flat or rising curve; cell line not stated here;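 also: intracellular cAMP measured with PDE inhibitor Ro 20-1724 present during compound exposure; potency is read from the fitted curve at half-maximal effect; % is scaled to controls: 0 for no effect and ±100 for the full control effect; nearly all actives have a fitted effect of over 65% in size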
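HTRF cAMP read-out (cAMP-d2 plus anti-cAMP antibody-K in lysis buffer, 30 min RT). Before lysis, cells are exposed to compounds with […] for 30 min at 37C in DPBS containing Ca/Mg, BSA and Tween 20.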
TRPV1 potentiator: human TRPV1 potentiation. potentiation, % at 8.33 µM. Q8NER1. 320,000 tested, 0.02% active. AID 540277. TRPV1-expressing cells, Fluo-8 calcium influx, capsaicin EC20 potentiation; host cell line not named in the record; control for the full effect not named in the record; active means potentiation above 80%; inconclusive means 30% to 80%; inactive means below 30%; also: 0% is about no effect
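Fluo-8 calcium influx in TRPV1-expressing cells, kinetic read (ex 480/em 520 nm). Compound added and read 3 min for agonist activity, followed by capsaicin at EC20 final and 2 min further read for enhancement.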
TRPML1 inh: inhibitors of human TRPML1 channel | Q9GZU1 | TRPML1-inducible cells, Ca2+ dye fluorescence, FDSS; active compounds read low; inhibition of EC80 agonist-evoked calcium signal | activity change, negative = inhibition, % (test concentration not listed) | 390,000 tested, 0.02% active; in the data active means activity change below about -50%; inconclusive means about -30% to -50%; inactive means above about -30%;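 also: stimulus is agonist 54-4 at its EC80 concentration; % is scaled to controls: 0 for no effect and ±100 for the full control effect; compound concentration not given in the record; the text of the record puts the active cut at -80%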
Target sequence (Q9GZU1 whole entry, looked up): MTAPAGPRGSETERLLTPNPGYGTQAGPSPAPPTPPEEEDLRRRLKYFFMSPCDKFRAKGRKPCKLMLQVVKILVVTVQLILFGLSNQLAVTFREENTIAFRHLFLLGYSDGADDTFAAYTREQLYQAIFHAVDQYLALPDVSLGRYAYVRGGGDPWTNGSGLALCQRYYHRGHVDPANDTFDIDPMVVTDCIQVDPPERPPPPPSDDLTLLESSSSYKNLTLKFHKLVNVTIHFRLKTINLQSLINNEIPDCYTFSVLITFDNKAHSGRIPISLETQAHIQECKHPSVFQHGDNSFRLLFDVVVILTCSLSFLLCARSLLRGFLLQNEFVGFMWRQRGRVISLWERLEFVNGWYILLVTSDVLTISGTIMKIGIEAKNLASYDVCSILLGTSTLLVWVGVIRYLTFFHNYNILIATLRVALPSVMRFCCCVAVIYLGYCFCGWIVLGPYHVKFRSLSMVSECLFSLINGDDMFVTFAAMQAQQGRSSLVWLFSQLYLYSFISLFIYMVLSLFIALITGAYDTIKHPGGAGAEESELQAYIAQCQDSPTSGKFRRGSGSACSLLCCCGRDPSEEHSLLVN
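Tet-induced TRPML1-DL cells loaded with Ca8 no-wash calcium dye were read kinetically on FDSS. Compound addition was followed by EC80 agonist 54-4 (4 uM final); inhibition was read over 110 s.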
Menin-MLL FL inh: menin-MLL binding inhibition, fluorescein peptide; AID 1766; FP activity change, % at 61.4 µM; Fluorescence polarization, fluorescein-MLL peptide displacement from menin; 290,000 tested, under 10 active; inconclusive = falling polarisation curve, or a change in total fluorescence; inactive = total fluorescence flat and polarisation flat or rising; no compound was filed as active; the % refers to the polarisation; negative = inhibition;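 also: % of control where 0% means no effect; inhibitors lower the polarisation; unlabelled MLL peptide was the positive control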
Sfp PPTase inh: inhibitors of Bacillus subtilis Sfp phosphopantetheinyl transferase. 310,000 tested, 3.5% active. Biochemical Sfp PPTase activity, qHTS. Q9F4F7. Potency, µM, for inactives: max response, negative = inhibition, hits mostly inhibitors; active = well fitted inhibition curve with a large enough effect; inconclusive = small, poorly fitted or top-dose-only effect, or another doubt; inactive = no such curve, though single readings can be large or run the other way;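 also: the enzyme is Sfp with the accession as filed and its product quenches rhodamine fluorescence; potency is read from the fitted curve at half-maximal effect; 0% = enzyme reaction without inhibitor and -100% = no enzyme wells; top concentration of the series not given in the record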
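Buffer: 50 mM Hepes-Na pH 7.6, 10 mM MgCl2, 0.01% Nonidet P-40, 0.01% BSA. Enzyme 15 nM, pre-exposed to compound 15 min; substrates then added and fluorescence change tracked over 30 min.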
* = called active by the depositor; ? = inconclusive; . = not tested or not shown; [ ] = remark or other dose.

SMILES | gsp ag | ClpP mod | gsp antag | TRPV1 potentiator | TRPML1 inh | Menin-MLL FL inh | Sfp PPTase inh
O=[N+]([O-])c1ccc(N2CCN(S(=O)(=O)c3ccc(Cl)c(Cl)c3)CC2)cc1NCCN1CCOCC1 | 22% | -5.7% | 2% | -10 | -17 | 1.6 | 4%
Cc1sc2nc3c4ccccc4c(NCc4ccco4)nn3c(=O)c2c1C | -17% | 25µM* | -5% | 3 | 8 | 0.9 | 18µM*
CC(C)(C)OC(=O)C[C@@H]1C/C=C\C[C@@H](CC(=O)N[C@@H](CO)Cc2ccccc2)C(=O)N2CCC[C@H]2COC1=O | -20% | 1.7% | -8% | . | -29 | . | .
CC(=O)c1c(N2CCN(c3ccccn3)CC2)nc(=S)n(-c2ccccc2)c1C | -16% | . | -15% | 0 | 13 | ? | 18%
CSCCC(NC(C)=O)C(=O)OCC(=O)N(c1ccccc1)c1ccccc1 (stereo not given) | -8% | -2.0% | 4% | -10 | 2 | 1.8 | 6%
O=C(O)C(Cc1c[nH]c2ccccc12)N1C(=O)C2C3c4ccccc4C(c4ccccc43)[C@@H]2C1=O (stereo not given in full) | -12% | -3.1% | 2% | 7 | -17 | 2.1 | 17%
CCOC(=O)N1CCC(Nc2c(NCCCN3CCN(CC)CC3)c(=O)c2=O)CC1 | -13% | -2.3% | -14% | 3 | 11 | 2.4 | -1%
CC(C)CCNC(=O)CCCc1ccccc1 | -1% | . | 8% | -20 | -4 | 3.0 | -2%
CCOc1ccc(C2CC(=O)N(Nc3ccc([N+](=O)[O-])cc3[N+](=O)[O-])C2=O)cc1 (stereo not given) | 6%[15.4 µM] | -0.1% | -42% | . | 33 | -6.0 | 16%
O=C(O)c1ccc(S(=O)(=O)N2CCCC2)cc1 | -3%[15.4 µM] | 0.5% | 6% | 3 | -12 | -0.8 | 4%
O=C(Nc1ccccc1Cl)c1cnccn1 | 12% | -0.4% | 5% | -5 | 4 | -1.7 | -2%
Cc1cc(=O)[nH]c(NN=Cc2cc(Br)ccc2O)n1 | -39%[inhibitor] | -9.5% | -6% | . | -23 | . | .
CC(=O)Nc1ccc(NC(=O)CSc2ccc(C)cc2)cc1 | 2% | -2.2% | -27% | -18 | 22 | 2.1 | 0%
CCCCc1nc(NCCO)c(C#N)c2c1CCCC2 | ? | 4.2% | -22% | -18 | -5 | 2.3 | 15%
Cc1ccc(SCC(=O)Nc2oc(C)c3c(C)n[nH]c(=O)c23)cc1C | -5% | 0.1% | 0% | -1 | -4 | . | .
Cc1nn(CC(=O)NCc2cccnc2)c(C)c1[N+](=O)[O-] | -35%[inhibitor][15.4 µM] | . | 6% | 17 | 4 | 0.1 | 14%
Cc1ccnc(Nc2nc(-c3ccc(O)c(O)c3)cs2)c1 | 15% | . | -5% | -12 | 2 | -0.9 | 50µM*
COC(=O)C1=C(C)NC(=S)NC1c1sccc1C (stereo not given) | -15%[15.4 µM] | . | . | 5 | -12 | -7.8 | 22%
CCOC(=O)C1=NN(c2ccccc2)C2=NC(C)=C(C(=O)OC)C(c3cccs3)N12 (stereo not given) | 4% | 0.8% | -1% | . | 12 | . | .
O=C(Oc1ccccc1)N1CCCC1 | 5% | -2.3% | 4% | 5 | -7 | 0.4 | -2%
CCOc1ccc(N(Cc2cc3ccc(C)cc3[nH]c2=O)C(=O)COC)cc1 | -26% | -14% | -13% | 1 | -23 | 3.7 | 10%
CCS(=O)(=O)N1CCC(C(=O)Nc2ccc3c(c2)CCC3)CC1 | ? | 1.9% | 14% | -20 | 1 | . | 3%
CC(NCc1cc(Br)ccc1OCC(N)=O)C12CC3CC(CC(C3)C1)C2 (stereo not given) | -7% | 1.4% | 6% | -5 | 22 | 1.0 | 7%
CCC(=O)c1ccc(OCc2ccc(C(=O)OC)cc2)cc1 | 16% | . | -4% | 5 | 8 | -1.8 | 11%
COc1ccc2nc(SCC(=O)Nc3ccc4[nH]c(=O)[nH]c4c3)[nH]c2c1 | 34% | -1.4% | 7% | 5 | 2 | . | .

Single records, from the list above. Values in the order: gsp ag	ClpP mod	gsp antag	TRPV1 potentiator	TRPML1 inh	Menin-MLL FL inh	Sfp PPTase inh
Record of `Cc1nn(CC(=O)NCc2cccnc2)c(C)c1[N+](=O)[O-]` = -35%[inhibitor][15.4 µM]	.	6%	17	4	0.1	14%
Record of `CC(=O)Nc1ccc(NC(=O)CSc2ccc(C)cc2)cc1` = 2%	-2.2%	-27%	-18	22	2.1	0%
Record of `CCC(=O)c1ccc(OCc2ccc(C(=O)OC)cc2)cc1` = 16%	.	-4%	5	8	-1.8	11%
Record of `O=C(O)C(Cc1c[nH]c2ccccc12)N1C(=O)C2C3c4ccccc4C(c4ccccc43)[C@@H]2C1=O` (stereo not given in full) = -12%	-3.1%	2%	7	-17	2.1	17%

The results go on:
SMILES | gsp ag | ClpP mod | gsp antag | TRPV1 potentiator | TRPML1 inh | Menin-MLL FL inh | Sfp PPTase inh
O=c1c2ccccc2oc2cc(Br)ccc12 | -1% | . | 1% | . | -5 | . | .
COc1ccc(S(=O)(=O)N2Cc3ccccc3CC2C(=O)N2CCOCC2)cc1 (stereo not given) | -31%[inhibitor] | -0.5% | 0% | -3 | -6 | 3.3 | 13%
O=C(COC(=O)c1ccccc1OC(F)F)Nc1ccc(N2CCCCC2)cc1 | 6% | 1.0% | -4% | 5 | -11 | . | .
Nc1n[nH]c(-c2ccc([N+](=O)[O-])cc2[N+](=O)[O-])n1 | -1% | -1.1% | 8% | -3 | 16 | -0.5 | -6%
CCOC(=O)C1C(c2ccccc2)N(C)OC1(O)C(F)(F)F (stereo not given) | -6% | . | 3% | -8 | 16 | -1.0 | 19%
COC(=O)C1CN(C(=O)C(C)Oc2ccc(C(C)C)cc2)c2ccccc2O1 (stereo not given) | 10% | 0.2% | -20% | -11 | 9 | 0.7 | 8%
CC(=O)N1N=C(c2ccccc2O)OC1(C)CC(=O)Nc1ccccc1 (stereo not given) | -6%[15.4 µM] | ? | 5% | 9 | 13 | 3.8 | -10%
CCN(c1ccc(OC)cc1)S(=O)(=O)c1nnc(NC(=O)C(C)C)s1 | 16% | . | 9% | -9 | 2 | -7.1 | 13%
O=[N+]([O-])c1ccc(NC(=S)N2CCN(c3ccccn3)CC2)cc1 | -8%[15.4 µM] | 0.2% | 4% | 14 | -1 | -4.3 | ?
CC1CC(C)CN(S(=O)(=O)c2cc3c4c(c2)CCN4C(=O)CC3)C1 (stereo not given) | ? | -1.2% | 0% | 5 | 6 | . | .
Cc1sc2nc(SC(C)C)nc(N)c2c1C | -10% | -3.5% | 3% | 3 | 9 | 5.9 | 2%
CCOC(=O)c1c(C)nn(-c2ccc(NC(=O)c3cccs3)cc2)c1C | -9% | 1.2% | -13% | 2 | 9 | . | -4%
CCc1ccc[n+](-c2[nH]c(=O)sc2/C=N/N=C(\[O-])c2ccncc2)c1 | 11% | . | 6% | -3 | -14 | -0.6 | -7%
CC(=O)c1ccc2c(c1)Cc1cc(C(C)=O)ccc1-2 | ? | -15% | -40% | 27 | -7 | 2.8 | 12%
N#Cc1c(SCC(N)=O)nsc1SCc1ccc(Cl)cc1 | 16% | 0.5% | -5% | -5 | -2 | 0.0 | -1%
CN(C(=O)COC(=O)c1cc([N+](=O)[O-])ccc1N1CCOCC1)C1CCCCC1 | -29% | -0.8% | . | . | 2 | . | .
CC(OC(=O)CCc1nc2ccccc2c(=O)[nH]1)C(=O)c1ccc(C(C)(C)C)cc1 (stereo not given) | 3% | -2.8% | ? | 2 | 1 | 9.7 | 14%
Cn1cccc1C(=O)NC1CCCCCC1 | ? | -1.9% | 10% | -5 | 19 | . | .
O=C(CCc1ccncc1)NC1CCCc2c1cnn2-c1cc(F)cc(F)c1 (stereo not given) | 11% | . | -3% | -9 | 0 | . | 14%
COc1ccc(CN2CCC3CC2c2cc(Cl)ccc23)cc1 (stereo not given) | . | 0.1% | -2% | . | 2 | . | .
COC(=O)c1ccccc1N1C(=O)[C@@H]2C(c3ccc(F)cc3)=NO[C@@H]2C1=O | 6% | 1.5% | 9% | -5 | 16 | 0.5 | 11%
CCCNC(=O)C(=O)N/N=C/c1cccs1 | 6% | -1.1% | 7% | -11 | -5 | -1.3 | 2%
O=C(c1ccc(CSc2ccccc2)cc1)N1CCN(c2ccccc2)CC1 | ? | -0.8% | 3% | 1 | 1 | -3.5 | 5%
COc1ccc(C2/C(=C(/O)c3ccc4c(c3)CC(C)O4)C(=O)C(=O)N2CCN2CCOCC2)cc1OC (stereo not given) | -16%[15.4 µM] | -1.9% | -7% | -40 | 1 | -4.2 | 2%
CCN(CC)S(=O)(=O)c1csc(C(=O)OCC(=O)c2ccccc2)c1 | -14% | -1.1% | -16% | -8 | 4 | 4.6 | 15%
The list continues:
SMILES | gsp ag | ClpP mod | gsp antag | TRPV1 potentiator | TRPML1 inh | Menin-MLL FL inh | Sfp PPTase inh
COc1ccc(CNC(=O)C2CCN(c3cc(C(=O)Nc4cccc(OC)c4)ccn3)CC2)cc1 | ? | -8.9% | -32% | 7 | -15 | 4.8 | 0%
Cc1ccc(CC2CC(=O)N(c3cc(C)on3)C2=O)cc1 (stereo not given) | 21% | -3.6% | 9% | -25 | -2 | 5.0 | -1%
Cc1ccc(S(=O)(=O)CCC(=O)NCc2ccco2)cc1 | -19% | -0.9% | 0% | -4 | -15 | 5.1 | -10%
CCOc1ccc(C2OCCC(C)O2)cc1OC (stereo not given) | -42%[inhibitor] | . | -15% | . | -7 | . | .
COc1ccc(NC(=O)CSc2nnc(-c3cc(C)[nH]n3)n2N)cc1OC | -4% | 1.5% | 11% | -14 | -12 | -2.5 | 11%
COC(=O)c1cc(NC(=O)C2CC2)cc(C(=O)OC)c1 | 3% | -4.1% | 11% | -8 | -9 | 0.7 | 16%
